Menin MLL FP FL: inhibitors of human menin-MLL interaction, wild-type MLL peptide. Fluorescence polarization, fluorescein-MLL peptide displacement from menin. FP activity change, % at 61.4 µM. 290,000 tested, under 10 active; inconclusive = falling polarisation curve, or a change in total fluorescence; inactive = total fluorescence flat and polarisation flat or rising; no compound was filed as active; the % refers to the polarisation; negative = inhibition;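 further: % of control where 0% means no effect; inhibitors lower the polarisation; unlabelled MLL peptide was the positive control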
D2 potentiator: human D2 receptor positive allosteric modulation; P14416; DiscoveRx D2 beta-arrestin cells, luminescence, 90 min; 100% = 57 uM dopamine signal; potentiation, % (test concentration not listed); hit rate 0.23% among 360,000; AID 624464; active = potentiation of 50% or more; inconclusive = 30% to 50%; inactive = 30% or less;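 further: compound concentration not given in the record; tested on top of an EC20 dose of dopamine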
Target sequence (P14416 whole entry, looked up): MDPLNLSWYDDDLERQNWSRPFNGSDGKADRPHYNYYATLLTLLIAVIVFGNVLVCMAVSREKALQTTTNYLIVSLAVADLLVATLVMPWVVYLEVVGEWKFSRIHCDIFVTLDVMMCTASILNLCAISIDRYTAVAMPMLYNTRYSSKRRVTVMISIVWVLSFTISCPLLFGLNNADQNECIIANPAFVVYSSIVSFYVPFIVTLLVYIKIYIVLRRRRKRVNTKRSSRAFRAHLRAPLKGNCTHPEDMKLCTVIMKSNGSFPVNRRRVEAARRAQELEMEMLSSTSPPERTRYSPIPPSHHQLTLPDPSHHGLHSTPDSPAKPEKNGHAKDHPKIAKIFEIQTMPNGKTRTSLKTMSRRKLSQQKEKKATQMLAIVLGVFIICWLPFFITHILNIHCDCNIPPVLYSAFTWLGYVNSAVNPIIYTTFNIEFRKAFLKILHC
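PathHunter beta-arrestin assay in DiscoveRx D2 cells. Compounds were added with an EC20 of dopamine (50 nM final) for 90 min at 37 deg C. Luminescence was read 1 h after detection reagent, with 57 uM dopamine as the EC100 control.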
TRPV1 potentiator: potentiators of human vanilloid receptor 1 (TRPV1). TRPV1-expressing cells, Fluo-8 calcium influx, capsaicin EC20 potentiation; host cell line not named in the record; control for the full effect not named in the record. potentiation, % at 8.33 µM. Q8NER1. AID 540277. hit rate 0.02% among 320,000; active means potentiation above 80%; inconclusive means 30% to 80%; inactive means below 30%; further: 0% is about no effect
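Cells expressing TRPV1 were dye-loaded with Fluo-8 and read kinetically: 10 s baseline, 3 min after compound (agonist portion), then 2 min after EC20 capsaicin (allosteric enhancer portion). Calcium-bound dye fluorescence at 480/520 nm.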
gsp antag: gsp mutant antagonism. gsp-mutant cells, cAMP HTRF, 30 min; control for the full effect not named in the record. Potency, µM (doses to about 76.9 µM), inactives show at the highest dose activity change, negative = inhibition, most hits filed as inhibitors. hit rate 0.4% among 340,000. AID 624288; active = falling curve of any shape with a large fitted effect; inconclusive = falling curve, mostly with a smaller effect; inactive = flat or rising curve; cell line not stated here;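 further: intracellular cAMP measured with PDE inhibitor Ro 20-1724 present during compound exposure; potency means the concentration at half of the fitted maximal effect; on the % scale 0 is the no-effect control and ±100 the full control effect; nearly all actives have a fitted effect of over 65% in size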
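HTRF cAMP measurement after 30 min RT detection following 30 min, 37C compound treatment alongside […] (added as 300 uM solution) in G418-selected cells seeded at 2000/well and grown 16–24 h.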
gsp ag: activates gsp, the McCune-Albright syndrome mutation | hit rate 0.13% among 340,000 | Potency, µM (series often up to 76.9 µM), for the others: at the top dose activation (cAMP increase), usual class: activators | AID 624287 | gsp mutant cells, cAMP HTRF, 30 min; control for the full effect not named in the record; active = well fitted activation curve with a large enough effect; inconclusive = small, poorly fitted or top-dose-only effect, or another doubt; inactive = no such curve, though single readings can be large or run the other way; cell line not stated here;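 further: phosphodiesterase inhibitor Ro 20-1724 added with compounds to block cAMP breakdown; potency means the concentration at half of the fitted maximal effect; nearly all actives have a fitted effect of over 60% in size; about a fifth of the inactives were tested at one dose only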
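Cells stably selected in G418 were plated at 2000/well, grown 16-24 hr, then given compounds in DMSO with the PDE inhibitor […] (300 uM solution added) for 30 min at 37C; cAMP was read by HTRF.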
ClpP mod: qHTS Assay for Activators of ClpP; purified B. subtilis ClpP, FRET peptide cleavage, 20 min; hit rate 1.9% among 340,000; Potency, µM (doses to about 57.5 µM), for the others: at the highest dose activity change, negative = active; AID 651965, 2013; active = well fitted falling curve with a large enough effect; inconclusive = small, poorly fitted or top-dose-only effect; inactive = no such curve, though single readings can be large or run the other way; further: potency means the concentration at half of the fitted maximal effect; the source files actives as falling curves though it sought activators and does not explain the sign; nearly all actives have a fitted effect of over 65% in size; many hits overshoot -100%
Target sequence (P80244 whole entry, looked up): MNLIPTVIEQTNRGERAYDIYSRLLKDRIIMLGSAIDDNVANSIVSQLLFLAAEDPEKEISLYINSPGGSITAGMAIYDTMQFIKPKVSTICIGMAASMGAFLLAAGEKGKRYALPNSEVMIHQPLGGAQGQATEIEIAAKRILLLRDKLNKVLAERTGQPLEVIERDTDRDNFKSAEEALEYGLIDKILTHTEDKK
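Buffer: 100 mM Tris/HCl pH8, 100 mM KCl, 0.05% low protease BSA, 2.5% glycerol, 0.01% Tween-20. ClpP 10 microg/mL final; 20 min RT; delta FRET normalized to ADEP and DMSO controls.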
Sfp PPTase inh: Sfp phosphopantetheinyl transferase inhibition. Q9F4F7. Biochemical Sfp PPTase activity, qHTS. Potency, µM, for inactives: max response, negative = inhibition, usual class: inhibitors. hit rate 3.5% among 310,000; active means well fitted inhibition curve with a large enough effect; inconclusive means small, poorly fitted or top-dose-only effect, or another doubt; inactive means no such curve, though single readings can be large or run the other way;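 further: the enzyme is Sfp with the accession as filed and its product quenches rhodamine fluorescence; potency means the concentration at half of the fitted maximal effect; 0% = enzyme reaction without inhibitor and -100% = no enzyme wells; top concentration of the series not given in the record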
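Sfp 15 nM + cpd, 15 min RT; start w/ rhodamine-CoA 5 uM, BHQ-2-YbbR 12.5 uM (final); 50 mM Hepes pH 7.6, 10 mM MgCl2, 0.01% NP-40, 0.01% BSA; read 525/598 nm at 0 and 30 min.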
An asterisk follows results filed as active; ? = inconclusive; . = no result given; & = joins results of further samples; [ ] = dose if it differs, or a comment.

no.	molecule	Menin MLL FP FL	D2 potentiator	TRPV1 potentiator	gsp antag	gsp ag	ClpP mod	Sfp PPTase inh
1	CSc1ccc(/C=C(/NC(=O)c2ccccc2)C(=O)NCCN2CCOCC2)cc1	.	-5	5	9%	-34%[inhibitor]	-2.6%	8%
2	Cc1csc(NC(=O)CSCC(=O)O)c1-c1nc2ccccc2s1	3.2	-2	0	-17%	17%	-0.6%	?
3	O=C1/C(=C/c2ccc(O)c([N+](=O)[O-])c2)SC(=S)N1Cc1ccccc1	32[activator]	-7	5	-7%	-40%	.	8%
4	Oc1cccc(/C=N/Nc2nn3cnnc3c3ccccc23)c1	3.3	-5	-18	-15%	11%	-0.1%	5%
5	O=C(Nc1nnc(CCS(=O)(=O)c2ccc3ccccc3c2)s1)c1ccc([N+](=O)[O-])cc1	-0.5	2	-1	3%	14%	1.9%	14%
6	O=c1c2c3nc4ccccc4nc3n(CC3CCCO3)c2ncn1CCc1ccccc1 (stereo not given)	-3.2	-6	25	0%	-20%	4.5µM*	5%
7	COc1ccc(NC(=O)CSCC(=O)Nc2ccc(S(=O)(=O)N3CCCCC3)cc2)cc1	-4.9	3	-5	-5%	20%[15.4 µM]	-3.3%	16%
8	Cc1ccc2[nH]c(C(F)(F)F)cc(=O)c2c1	-1.6	0	-7	3%	9%[15.4 µM]	.	11%
9	O=c1cc[nH]c2c(C(F)(F)F)cccc12	0.3	0	1	2%	-23%	28µM*	12%
10	COc1cccc(NC(=O)N2CCC(NC(=O)C(Cc3ccccc3OC)NC(C)=O)CC2)c1 (stereo not given)	-3.2	-7	11	24%	-9%[15.4 µM]	.	27%
11	N#C/C(=N\Nc1ccccc1F)C(=N)N1CCCCC1	0.1	-6	26	-15%	4%	-3.1%	5%
12	CC(C)(C)NC(=O)C(c1ccco1)N(C(=O)Cn1nnc(-c2ccc(F)cc2)n1)c1ccccc1F (stereo not given)	1.9	-6	-13	-13%	0%	1.2%	22%
13	O=C(CSc1ccc(-c2ccccn2)nn1)Nc1nccs1	0.5	1	-3	6%	7%[15.4 µM]	.	-17%
14	CS(=O)(=O)N(CC(=O)Nc1cccc(Br)c1)Cc1ccccc1	6.6	-11	-1	-5%	5%	.	31%
15	CC(=O)OC1(C(F)(F)F)Oc2ccccc2NC1=O (stereo not given)	4.3	-2	2	-8%	?	-1.0%	13%
16	O=S(=O)(c1ccccc1C(F)(F)F)N1CCN(S(=O)(=O)c2ccccc2C(F)(F)F)CC1	1.7	-5	2	12%	-26%	0.2%	5%
17	Cc1cccc(NC(=O)N2CCCC2C(=O)Nc2ccccc2)c1 (stereo not given)	6.7	-23	9	-32%	-16%[15.4 µM]	-0.4%	21%
18	Cc1ccc(-n2nnnc2-c2cnc(N3CCCC3)nc2C(F)(F)F)cc1	2.2	-17	-18	-18%	17%	-2.0%	-8%
19	O=C1CC(C(=O)Nc2ccc(C(=O)N3CCOCC3)cc2)C2(CCCCC2)O1 (stereo not given)	-1.0	-3	9	8%	-18%	1.1%	28%
20	CC(=O)Nc1ccc(S(=O)(=O)N2CCN(Cc3ccncc3)CC2)cc1	-3.0	-23	6	-16%	-10%	-3.0%	7%
21	CC(C)(C)c1csc(NC(=O)c2cccnc2)n1	1.3	-6	-8	8%	?	-0.5%	9%
22	Cc1ccc(C(=O)CN2CCN(c3ccccn3)CC2)c(C)c1	2.3	4	0	-10%	-48%[inhibitor]	?	-22%
23	C=CCn1c(Cc2nc3ccccc3[nH]2)n[nH]c1=S	-1.1	-18	-4	0%	-1%	-2.1%	-3%
24	Cc1cccc(N(C(=O)c2snc(C(N)=O)c2N)C(C(=O)NCC2CCCO2)c2ccc3ncccc3c2)c1 (stereo not given)	2.6	-5	-2	-10%	-2%[15.4 µM]	.	-5%
25	CC1(C)CC(=O)C2=C(C1)N(c1ccc(F)cc1)C(=O)NC2(C(F)(F)F)C(F)(F)F	-0.3	8	-11	-2%	?	-0.7%	1%
26	Cc1nc2nc[nH]n2c(=O)c1NC(=O)CCc1ccccc1	3.1	-18	-3	6%	-42%[inhibitor]	1.0%	19%
27	COc1ccc(C/C(N)=N/OC(C)=O)cc1OC	6.0	-3	-5	7%	?	1.4%	9%
28	CCN(CC)C(=O)C1CCCN(c2ccc([N+](=O)[O-])cc2/C=N/NC(=O)c2cccc(Br)c2)C1 (stereo not given)	17	-15	14	-8%	-20%	0.6%	15%
29	Cc1ccc(S(=O)(=O)N2CCCC(C(=O)NCc3ccccn3)C2)cc1 (stereo not given)	-1.1	-7	-18	12%	-24%	0.0%	?
30	NS(=O)(=O)c1ccc(Nc2nc(-c3ccc4ccccc4c3)cs2)cc1	59[activator]	-1	2	-20%	13%	?	4%
31	NC(=O)c1cc[n+](CC(=O)NC(=O)Nc2ccccc2)cc1	.	-4	1	17%	9%	-0.3%	.
32	COC(=O)c1sc(SC)nc1N	13	-3	22	2%	1%[15.4 µM]	.	7%
33	CC(=O)Nc1nnc(SCC(=O)NC2CCCC2)s1	-8.6	-3	8	7%	-19%[15.4 µM]	.	-4%
34	Cc1cccc(NC(=S)NCC(C)CSc2ccc(Cl)cc2)c1 (stereo not given)	-3.0	-13	8	?	6%	-1.1%	23%
35	Cc1ccc2nc(/C(C#N)=C/c3ccc(-c4cccc([N+](=O)[O-])c4)o3)[nH]c2c1	?	-4	15	0%	2%	0.9%	-16%
36	O=C(Nc1ccccc1)C1CC(O)CN1S(=O)(=O)c1ccc([N+](=O)[O-])cc1 (stereo not given)	2.1	-21	0	15%	11%	-0.1%	8%

Some of the entries so far, screen by screen:
33	CC(=O)Nc1nnc(SCC(=O)NC2CCCC2)s1
26	Cc1nc2nc[nH]n2c(=O)c1NC(=O)CCc1ccccc1

entry no.	33	26
Menin MLL FP FL	-8.6	3.1
D2 potentiator	-3	-18
TRPV1 potentiator	8	-3
gsp antag	7%	6%
gsp ag	-19%[15.4 µM]	-42%[inhibitor]
ClpP mod	.	1.0%
Sfp PPTase inh	-4%	19%

The listing continues.
no.	molecule	Menin MLL FP FL	D2 potentiator	TRPV1 potentiator	gsp antag	gsp ag	ClpP mod	Sfp PPTase inh
37	O=C(c1ccncc1)N(c1ccc2oc3c(c2c1)CCCC3)S(=O)(=O)c1ccc(F)cc1	3.8	2	-7	-4%	13%[15.4 µM]	.	3%
38	CC(C)Nc1nc(NC(C)C)nc(N(C#N)CCOc2ccc(Cl)cc2Cl)n1	0.3	-10	28	9%	-8%	-2.3%	8%
39	CCOC(CCNC(=O)c1cn(CCOC)c(=O)c2c1c1ccccc1n2C)OCC	2.1	2	7	5%	?	3.5%	21%
40	Cc1cc(C)nc(N2CCCC(C(=O)NC(C)CCc3ccco3)C2)n1 (stereo not given)	4.3	-10	-9	-13%	16%	?	-2%
41	Cc1cc(NC(=O)CSc2nnc(C3COc4ccccc4O3)n2C)no1 (stereo not given)	0.6	-2	0	-7%	-22%[15.4 µM]	.	13%
42	N#C/C(=C/c1cccc([N+](=O)[O-])c1)c1nnc2n1CCCCC2	3.2	-2	-1	11%	18%	-5.4%	-5%
43	Cc1ccc(N(C(=O)Cn2nnc(-c3ccccc3)n2)C(C(=O)NC2CCCCC2)c2ccccn2)cc1C (stereo not given)	1.7	-17	8	-9%	-63%[inhibitor]	-3.1%	5%
44	COc1ccc(S(=O)(=O)N2CCN(C(=O)c3ccco3)CC2)c(C)c1C	0.6	1	-5	-26%	-19%	2.4%	12%
45	CNc1ccc(Br)cc(C(=O)/C=C/c2cc(OC)ccc2OC)c1=O	-0.2	3	-38	-10%	?	-9.7%	-7%
46	N#Cc1nc(COc2ccc(F)cc2)oc1NCCN1CCOCC1	0.8	-6	-4	15%	?	0.4%	11%
47	CCN(C(=O)COc1ncnc2ccc(Br)cc12)C1CCS(=O)(=O)C1 (stereo not given)	-0.5	0	-4	2%	-16%	2.7%	13%
48	COc1ccc(-c2nnc(SCC(=O)NCCC(C)C)nc2-c2ccc(OC)c(OC)c2)cc1OC	0.2	-7	2	-14%	27%	-0.4%&-7.6%	4%
49	Cc1ccc(NS(=O)(=O)c2ccc(-c3csc(C)n3)s2)c(C)c1	3.8	-3	-1	-11%	-2%[15.4 µM]	-3.1%	-28%
50	CN1CCN(C(=O)C2=C[C@@H](c3coc4ccccc4c3=O)C[C@@H](OCCCCO)O2)CC1	-3.0	-7	?	-7%	4%	-3.4%	20%
51	COc1ccc(NS(=O)(=O)c2ccc(NC(=O)c3ccccn3)cc2)cc1	.	0	-10	2%	-61%[inhibitor]	-0.5%	.
52	Cc1cc(/C=N/Nc2nc(N3CCOCC3)nc(N3CCOCC3)n2)c(C)n1-c1ccccc1	0.4	-1	?	-25%	3%[15.4 µM]	.	-17%
53	COc1ccc(OC)c(NC(=S)NCc2ccco2)c1	.	-9	.	1%	-18%	0.4%	.
54	Cc1ccccc1Nc1c(-c2ccccn2)nc2c(C)cccn12	-0.2	-13	-8	-17%	7%[15.4 µM]	.	6%
55	COc1ccc(C(=O)N[C@H]2COC(C)(C)O[C@H]2c2ccccc2)cc1	-0.3	-18	?	-1%	0%	-0.8%	9%
56	Cc1cccc(N2C(=S)N=C(Nc3c(C)cccc3C)C23CCOC(C)(C)C3)c1 (stereo not given)	1.0	27	-9	-7%	-14%	-1.4%	8%
57	C=CCOc1nc(-c2ccccc2Cl)nc2ccccc12	1.7	12	4	-13%	-1%[15.4 µM]	-3.9%	-9%
58	c1cc(CSc2nnc(-c3ccc4c(c3)OCO4)o2)ccn1	3.1	-10	3	-2%	-4%	-4.3%	24%
59	Cc1ccc(CN(C#N)c2nc(C)cc(C)n2)cc1	4.3	22	5	-3%	-2%	-1.9%	4%
60	Cc1ccc(Cn2c(=O)n(-c3ccccc3)c(=O)c3ccc(C(=O)NCc4ccco4)cc32)cc1	5.2	-10	6	?	-8%	-11%&-1.2%	-2%
61	Cc1cc(NC(=O)CSCC(=O)N2CCN(c3cccc(C)c3C)CC2)no1	.	-4	-8	6%	-4%	0.3%	.
62	O=C(NC1CCCCC1)C(c1ccc(F)cc1)N(C(=O)Cc1ccsc1)c1ccc(F)cc1 (stereo not given)	5.2	6	-8	2%	-23%	-0.1%	14%

High-throughput results as filed in PubChem BioAssay.
